Menin-MLL FL inh – menin-MLL binding inhibition, fluorescein peptide; FP activity change, % at 61.4 µM; Fluorescence polarization, fluorescein-MLL peptide displacement from menin; 290,000 tested, under 10 active; inconclusive = falling polarisation curve, or a change in total fluorescence; inactive = total fluorescence flat and polarisation flat or rising; no compound was filed as active; the % refers to the polarisation; negative = inhibition;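 further: % of control where 0% means no effect; inhibitors lower the polarisation; unlabelled MLL peptide was the positive control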
* = called active by the depositor; u = inconclusive; & = joins results of further samples; [ ] = another dose, or the depositor's remark. Only part of the results is shown (hit frequency here may not be typical).

Structure	Menin-MLL FL inh
O=c1cc(-c2ccc(O)cc2)oc2c(-c3cc(-c4cc(=O)c5c(O)cc(O)cc5o4)ccc3O)c(O)ccc12	3.2
O=C(CCC(=O)N(CC(=O)NC1CCCC1)Cc1ccc2c(c1)OCO2)Nc1nccs1	-2.3
NS(=O)(=O)c1ccc(CCNC(=O)CCCCCNc2nc(=S)[nH]c3ccccc23)cc1	0.6
CN1CC[C@@]2(CCCN(S(=O)(=O)c3ccccc3)C2)C1	-2.0
Cn1c(=O)c2c(nc(N3CCN(Cc4ccccc4)CC3)n2CCSc2ncccn2)n(C)c1=O	2.6
Cc1ccc(C2(C(F)(F)F)N=C3Sc4cc(C)ccc4N3C(=O)N2)cc1 (stereo not given)	2.3
O=C(c1ccco1)N1CCC[C@@]2(CCN(C(c3ccccc3)c3ccccc3)C2)C1	5.0
Cn1cccc1C(=O)N1CCC2(CC1)CN(C(c1ccccc1)c1ccccc1)C2	-6.1
CCCn1c(C)nc2c(NCCCN3CCCCC3C)nc(C)nc21 (stereo not given)	-0.1
CO[C@@H]1COC(=O)[C@H](COCc2ccccc2)NC(=O)C/C=C\[C@@H](C)[C@H](OC)COC(=O)[C@H](COCc2ccccc2)NC(=O)C/C=C\[C@H]1C	-0.8[11.7 µM]
COC(=O)NC(/C(C(=O)OC)=C(\C)NCc1ccccc1)c1ccccc1 (stereo not given)	-4.3[11.7 µM]
CCOC(=O)C1=NO[C@@]2(C=C(Br)C3(OCCCO3)[C@H]3O[C@H]32)C1	0.8[11.7 µM]
COC(=O)c1cc(NC(=O)/C=C/c2ccccc2)ccc1O	1.4
COc1ccc(C(=O)N2CCC3(CC2)CN(c2ccccn2)C3)cc1	2.6
O=C(c1cnccn1)N1CCC2(CC1)CCN(c1ncccn1)CC2	1.3
CO[C@H]1COC(=O)[C@H](C)NC(=O)C/C=C\[C@@H](C)[C@H](OC)COC(=O)C/C=C\[C@@H]1C	2.6[11.7 µM]
CCN1CCc2c(OCC(=O)N3CCc4ccccc43)cccc2C1=O	0.7
CCCCCCCCCCCCOS(=O)(=O)O	-1.0
O=c1[nH]c(CSc2nnc3ccccn23)nc2cc(C(F)(F)F)ccc12	3.4
CCOC(=O)C1=C(C)NC(SCC(=O)Nc2nc(C)cs2)=C(C#N)C1c1cccs1 (stereo not given)	5.0
COCOc1cc(OC)ccc1C(=O)/C=C/c1ccc2c(c1)OCO2	2.8&0.2
Clc1ccc(NCc2ccsc2)cc1	2.2
C[C@H](N=C(NC#N)Nc1ccncc1)C(C)(C)C	-20
COc1ccc2c(c1)c(CC(=O)NCc1ccc3c(c1)OCO3)c(C)n2C(=O)c1ccc(Cl)cc1	-0.2
COCCn1c(=O)c(-c2ccc(Cl)cc2)nc2cnc(Oc3ccc(OC)cc3)nc21	-2.5

Structures from the list above that contain four or more nitrogen atoms, in the order listed:
Structure	Menin-MLL FL inh
O=C(CCC(=O)N(CC(=O)NC1CCCC1)Cc1ccc2c(c1)OCO2)Nc1nccs1	-2.3
NS(=O)(=O)c1ccc(CCNC(=O)CCCCCNc2nc(=S)[nH]c3ccccc23)cc1	0.6
Cn1c(=O)c2c(nc(N3CCN(Cc4ccccc4)CC3)n2CCSc2ncccn2)n(C)c1=O	2.6
CCCn1c(C)nc2c(NCCCN3CCCCC3C)nc(C)nc21 (stereo not given)	-0.1
O=C(c1cnccn1)N1CCC2(CC1)CCN(c1ncccn1)CC2	1.3
O=c1[nH]c(CSc2nnc3ccccn23)nc2cc(C(F)(F)F)ccc12	3.4
CCOC(=O)C1=C(C)NC(SCC(=O)Nc2nc(C)cs2)=C(C#N)C1c1cccs1 (stereo not given)	5.0
C[C@H](N=C(NC#N)Nc1ccncc1)C(C)(C)C	-20
COCCn1c(=O)c(-c2ccc(Cl)cc2)nc2cnc(Oc3ccc(OC)cc3)nc21	-2.5

Going on with the list:
Structure	Menin-MLL FL inh
Cc1nc(N2CCCCC2)sc1C=O	0.4
Cc1cccc(-n2c(-c3ccco3)nc3nc4ccccc4nc32)c1	3.0
Oc1cc2c(c(Cl)c1O)CCNC[C@H]2c1ccccc1	-22
Cc1cc(C(=O)O)sc1C(N)C(=O)O (stereo not given)	6.7
N#Cc1cccc(NC(=O)N2CC[C@@]3(CCCN(C(=O)c4csnn4)C3)C2)c1	-0.1
O=C1CCN(N=Nc2cccc(Cl)c2)N1	0.0
COCC(=O)N1CCC2(CC1)CN(C(=O)Nc1cccc(C#N)c1)C2	0.5
O=C(COC(=O)c1ccccc1NS(=O)(=O)c1cc([N+](=O)[O-])ccc1Cl)c1ccccc1	2.6
COc1ccc(CNc2ncnc3ccc(-c4ccccc4C#N)cc23)c(OC)c1	0.4
COc1ccc(C(=O)N2CCC3(CCCN(c4ccccc4)C3)CC2)cc1	u
COc1ccc(C2=Nn3c(nnc3-c3cccc(OC)c3OC)SC2)cc1	-6.5
COC(=O)N[C@@H](CCc1ccccc1)[C@]1(C(C)=O)CCCC1=O	-3.1
CC(=O)OC[C@@H]1O[C@H](C/C=N\OCC[C@H]2C=C[C@H](OC(C)=O)[C@@H](COC(C)=O)O2)C=C[C@@H]1OC(C)=O	-1.4[11.7 µM]
Cc1ncc(CO)c(/C=N/NC(=O)c2cc(O)c(O)c(O)c2)c1O	-6.0
Cc1cccc(CNc2ncncc2-c2ccccc2CN(C)C)c1	0.0
CC(C)(C(O)c1ccc([N+](=O)[O-])cc1)[N+](=O)[O-] (stereo not given)	-2.3
COC(=O)NC(c1cccc(F)c1)[C@@]1(C(=O)OC)CCCC1=O (stereo not given in full)	-0.1[11.7 µM]
O=C(O)c1cc(-c2cc(C(=O)O)c3ccccc3n2)nc2ccccc12	-2.0
O=C1c2ccccc2C(=O)c2cc(S(=O)(=O)Nc3cccc4cccnc34)ccc21	-0.6
C/C=C1\C2C=C(C)CC1(N)c1ccc(=O)[nH]c1C2 (stereo not given)	-2.6
COC(=O)C1(C(=O)OC)C/C=C\C/C=C\c2ccccc2[C@@H]1C[N+](=O)[O-]	-0.3&-7.8
Nc1c(C(=O)c2ccco2)oc2ccccc12	-0.2
ClCc1csc(N/N=C/c2cccs2)n1	15
COc1cccc([C@@H]2Oc3ccc(Br)cc3C(=O)[C@H]2OC(=O)N[C@H]2CCCc3ccccc32)c1	15
Cn1nnnc1SCC1=C(C(=O)O)N2C(=O)[C@@H](NC(=O)[C@@H](O)c3ccccc3)[C@@H]2SC1	-0.7[24.8 µM]

Following part
Structure	Menin-MLL FL inh
O=C1CCCCCN1CP(=O)(O)CN1CCOCC1	1.5
CC(C)c1ccccc1NS(C)(=O)=O	1.4
CC(C)CCCC(C)C1CCC2C3CC=C4CC(O)CC[C@@]4(C)C3CC[C@@]12C (stereo not given in full)	-8.5
FC(F)(F)C(Cl)Br (stereo not given)	2.4
COCC(=O)N1CCC2(CCCN(Cc3ccccc3)C2)CC1	-2.4
COc1ccc(-c2nc3c(c4c2C[C@H](c2ccccc2)OC4)CN(C(=O)C2CCCCC2)CC3)c(C)c1	-0.1[11.7 µM]
COc1ccc(C(=O)/C(=C\c2sccc2C)c2nc3ccccc3o2)cc1	4.3
Cn1nnnc1SCC1=C(C(=O)O)N2C(=O)C(NC(=O)C(OC=O)c3ccccc3)C2SC1 (stereo not given)	1.6
COc1cccc(Cn2c(=O)c(-c3cn(C)c4ccccc34)nc3cnc(N4CCOCC4)nc32)c1	u
CCCCCCN(C(=O)CCCCCN1C(=O)NC(c2ccc(-c3ccccc3)cc2)C(C(=O)OCc2ccccc2)=C1C)C(C(=O)NCCCC)c1ccc(O)cc1 (stereo not given)	4.4&4.5
CC1CC(OC(=O)CN2CCCCC2)CC(C)(C)C1 (stereo not given)	0.8
C[C@@H]1CCN(C(=O)[C@H](CCCNC(=N)N)NS(=O)(=O)c2cccc3c2NC[C@H](C)C3)[C@@H](C(=O)O)C1	-2.2
CCC(=O)N[C@@H]1Cc2ccccc2[C@@H](c2ccccc2)C1	u
Cc1nc(NC2=NCN(Cc3cccnc3)CN2)nc2c(C)cccc12	-0.5
COCC(=O)N1CCc2nc(-c3ccc(OC)cc3C)c3c(c2C1)CO[C@@H](c1ccccc1)C3	-4.3[11.7 µM]
COC(=O)C(C(=O)OC)[C@@H]1CCCC(=O)C1	3.0[11.7 µM]
COC(=O)C/C=C\[C@@H](C)[C@@H](/C=N\OC[C@@H](O)COCc1ccco1)OC	-9.1[11.7 µM]
O=C(O)[C@H]1CN(CCCP(=O)(O)O)CCN1	-14&9.2
O=C(c1csnn1)N1CCC2(CCCN(c3ccncc3)C2)CC1	-3.9
CC[C@H](C)[C@H](NC(=O)[C@H](Cc1ccc(O)cc1)NC(=O)[C@H](Cc1cnc[nH]1)NC(=O)[C@H](CCCNC(=N)N)NC(=O)[C@H](CC(C)C)NC(=O)[C@H](C)NC(=O)[C@H](CO)NC(=O)[C@H](Cc1ccc(O)cc1)NC(=O)[C@H](Cc1ccc(O)cc1)NC(=O)[C@H](CCCNC(=N)N)NC(=O)[C@H](C)NC(=O)[C@H](CCSC)NC(=O)[C@H](CC(=O)O)NC(=O)[C@H](CCC(=O)O)NC(=O)[C@H](C)NC(=O)[C@@H]1CCCN1C(=O)[C@H](C)NC(=O)[C@H](CC(=O)O)NC(=O)[C@H](CCC(=O)O)NC(=O)CNC(=O)[C@@H]1CCCN1C(=O)[C@H](CC(N)=O)NC(=O)[C@H](CC(=O)O)NC(=O)[C@@H]1CCCN1C(=O)[C@H](CCCCN)NC(=O)[C@H](CO)NC(=O)[C@@H]1CCCN1C(=O)[C@@H](N)Cc1ccc(O)cc1)C(=O)N[C@@H](CC(N)=O)C(=O)N[C@@H](CC(C)C)C(=O)N[C@@H](CC(C)C)C(=O)N[C@H](C(=O)N[C@@H](CCCNC(=N)N)C(=O)N1CCC[C@H]1C(=O)N[C@@H](CCCNC(=N)N)C(=O)N[C@@H](Cc1ccc(O)cc1)C(N)=O)[C@@H](C)O	-0.1
CCC/C=C(\CCC)C(NS(C)(=O)=O)c1ccccc1 (stereo not given)	1.6
COc1ccc(Cl)cc1N=Nc1ncc[nH]1	15
COCC(=O)Nc1ccc(C(=O)Nc2ccccc2Cl)cc1	-4.0
C=CCOC(=O)N[C@H](c1cccc(C(F)(F)F)c1)C(C(C)=O)C(C)=O	0.8
CC(C)C[C@@H](CC(=O)N[C@@H](CCC(=O)O)CC(=O)O)NC(=O)[C@@H]1CCCC[C@H]1NC(=O)C[C@H](CCCN)NC(=O)C[C@H](Cc1ccccc1)NC(=O)[C@@H]1CNCC[C@H]1N	0.9

Further entries follow:
compound | Menin-MLL FL inh
CSCCC(NC(=O)c1ccccc1)C(=O)Nc1ccc(NC(C)=O)cc1 (stereo not given) | 2.5
CCCCCCCC/C=C\CCCCCCCC(=O)OCC(CO)OC(=O)CCCCCCC/C=C\CCCCCCCC (stereo not given) | 1.3
Cc1ccc2cc(C#N)c(SCC(=O)NCC3CCCO3)nc2c1C (stereo not given) | -0.4
COC(=O)/C(C)=C/CC12OC(C)(C)C3CC(C=C4C(=O)c5cc6c(c(CCC(C)(C)Cl)c5OC431)OC1(C)CCC(=C(C)C)C6C1)C2=O (stereo not given) | -2.3
COc1ccc(OC)c(-c2nnc3n2N=C(c2ccccc2OC)CS3)c1 | -0.1
C#CCOCCOCCOCCNc1nc(N2CCN(C(=O)[C@H](Cc3ccc(O)cc3)n3cc([C@@H](N)C(C)CC)nn3)CC2)nc(N2CCN(C(=O)[C@H](Cc3cc4ccccc4[nH]3)n3cc([C@@H](N)Cc4ccc(O)cc4)nn3)CC2)n1 (stereo not given in full) | 35[activator]
COC(=O)CC[C@H](N)C(=O)O | -1.7
COC(=O)N1C(C)=Cc2ccccc2C1CC(C)=O (stereo not given) | 2.0
Clc1cccc(-c2cc3nc4c(c(N5CCNCC5)n3n2)CCCC4)c1 | -1.6
COc1cccc([C@@H]2Oc3ccc(OC)cc3C(=O)[C@H]2OC(=O)N[C@H](C)C2CCCCC2)c1 | -2.5&6.8
Cc1noc(C)c1-c1nccc(N2CCNCC2)n1 | -0.4
Cc1ccc(-c2nc3c(c(=O)[nH]c(=O)n3Cc3ccccc3)n2C)s1 | 12
COC(=O)C/C=C/C(C)C(OC)c1ccccc1Br (stereo not given) | 3.8[11.7 µM]
COc1ccc2[nH]cc(CCNc3ncnc4ccc(-c5cccc(C#N)c5)cc34)c2c1 | 4.0
CCOC(=O)c1sc2ncn(/N=C/c3ccccn3)c(=O)c2c1C | 5.4

(further entries)
compound | Menin-MLL FL inh
C=CCN1CCc2cc(O)c(O)cc2[C@H](c2ccccc2)C1 | -24
c1cncc(-c2cncnc2NC2CCNCC2)c1 | 1.4
CN(C)c1ccc(/C=C(\C#N)C(=O)NCc2ccco2)cc1 | u
O=c1[nH]c(Cl)nc2c1ncn2C1OC(CO)C(O)C1O (stereo not given) | -2.3
N#Cc1c(Cl)nc(-c2cccnc2)nc1-c1ccccc1 | -4.2
COc1ccc(-n2c(=O)c(-c3cn(C)c4ccccc34)nc3cnc(N4CCNCC4)nc32)cc1 | u
COc1ccc(CNc2ccnc(-c3ccc(C(=O)N(C)C)cc3)n2)c(OC)c1 | 6.6
COc1ccc(OC)c(C2OCCC=CC2C)c1 (stereo not given) | -4.3[11.7 µM]
Cc1cc2oc(=O)cc(-c3ccccc3)c2c(C)c1/C=C/c1ccc(F)cc1 | 5.2
COc1ccc2c(c1)C(=O)[C@H](OC(=O)NCCOc1ccccc1)[C@@H](c1ccc(OC)c(Br)c1)O2 | -1.3
COc1ccccc1CNc1ncncc1-c1ccoc1 | u
C[C@H](C[C@H](N)C(=O)O)C(=O)O | -1.1&1.1
Cc1cccc2cc(C(c3nnnn3CC3CCCO3)N3CCCC4(CCCCC4)C3)c(=O)[nH]c12 (stereo not given) | 2.8
C/C(CCN1CCCCc2nc(C)c(C)cc21)=N\O[C@@H](C)c1cn([C@@H]2COC[C@@H]2O)nn1 | -1.2[11.7 µM]
Cc1nc2cnc(OCc3ccccc3)nc2n(Cc2ccc(F)cc2)c1=O | 8.5
O=S(=O)(c1ccccc1)N1CCCc2ccccc21 | 7.4
Cc1nc2cnc(Nc3ccccc3)nc2n(C[C@H]2CCCO2)c1=O | 10
